# High-throughput results (PubChem)
# Six1-Eya2 blk: Six1/Eya2 interaction inhibition | Q15475+O00167 | AlphaScreen GST-Six1/His-Eya2 binding, biochemical; active compounds read low; control for the full effect not named in the record | activity change, % (no concentration beside the values) | actives 0.56% (n = 360,000) | AID 651725; in the data active = activity change below about -65%; inconclusive = about -30% to -65%; inactive = above about -30%; note: % is set by controls: 0 for no effect and ±100 for the full control effect
#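 GST-Six1 + His-Eya2 (5X stock: 250/500 nM); Tris pH 8.0, 300 mM NaCl, 0.05% BSA, 0.02% Tween 20; GSH donor/Ni acceptor beads; 1 h 37 °C dark; AlphaScreen readout.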
# TRPML1 agonist: agonists of human TRPML1 channel. AID 624414. activation, % (concentration not given with the values). actives 0.12% (n = 410,000). TRPML1-expressing cells, Ca2+ dye fluorescence, FDSS; host cell line not named in the record; reference of the full effect not given here; in the data active = activation above about 50%; inconclusive = about 30% to 50%; inactive = below about 30%; note: 0% is about no effect; the text of the record puts the active cut at 80%
#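 Agonist activity was taken from a 110 s kinetic Ca2+ dye read on the FDSS after pinning compounds onto TRPML1-DL cells. The cells were seeded at 1,500/well with Tet inducer, incubated about 16 h, then dye-loaded at room temperature.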
# TRPML1 inh: blocks the human TRPML1 channel; Q9GZU1; TRPML1-inducible cells, Ca2+ dye fluorescence, FDSS; active compounds read low; inhibition of EC80 agonist-evoked calcium signal; activity change, negative = inhibition, % (no concentration beside the values); actives 0.02% (n = 390,000); AID 624415; in the data active means activity change below about -50%; inconclusive means about -30% to -50%; inactive means above about -30%;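 note: stimulus is agonist 54-4 at its EC80 concentration; % is set by controls: 0 for no effect and ±100 for the full control effect; compound concentration not given in the record; the text of the record puts the active cut at -80%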
#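 Calcium fluorescence in TRPML1-DL cells induced overnight with Tet: a 110 s read after compound pin addition, then a 110 s antagonist read after challenge with 54-4 at 4 uM final (EC80).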
# D2 PAM: positive allosteric modulators of human D2 dopamine receptor; potentiation, % (concentration not given with the values); P14416; DiscoveRx D2 beta-arrestin cells, luminescence, 90 min; 100% = 57 uM dopamine signal; actives 0.23% (n = 360,000); AID 624464; active = potentiation of 50% or more; inconclusive = 30% to 50%; inactive = 30% or less;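 note: compound concentration not given in the record; tested on top of an EC20 dose of dopamine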
#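 PathHunter D2 cells, attached overnight at 37 deg C, received compound in DMSO plus dopamine at EC20 (50 nM final) for 90 min at 37 deg C. Beta-arrestin recruitment was read as luminescence after 1 h with detection reagent at ambient temperature.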
# CtBP-E1A blk: blocks the CtBP interaction with E1A; actives 0.49% (n = 340,000); AlphaScreen GST-E1A/His-CtBP binding, 1536-well; active compounds read low; control for the full effect not named in the record; activity change, % (concentration not given with the values); in the data active means activity change below about -65%; inconclusive means about -30% to -65%; inactive means above about -30%; note: % is set by controls: 0 for no effect and ±100 for the full control effect
#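 Protein mix (5X: 125 nM each GST-E1A, His-CtBP) was incubated with pinned compound 2 h at 37 deg C in dark, in 50 mM Tris pH 8.0 buffer with 300 mM NaCl. Glutathione donor and nickel acceptor beads followed; AlphaScreen signal read after 1 h.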
# TRPV1 potentiator: potentiators of human vanilloid receptor 1 (TRPV1); Q8NER1; TRPV1-expressing cells, Fluo-8 calcium influx, capsaicin EC20 potentiation; host cell line not named in the record; control for the full effect not named in the record; potentiation, % at 8.33 µM; actives 0.02% (n = 320,000); active means potentiation above 80%; inconclusive means 30% to 80%; inactive means below 30%; note: 0% is about no effect
# Target sequence (Q8NER1 whole entry, looked up): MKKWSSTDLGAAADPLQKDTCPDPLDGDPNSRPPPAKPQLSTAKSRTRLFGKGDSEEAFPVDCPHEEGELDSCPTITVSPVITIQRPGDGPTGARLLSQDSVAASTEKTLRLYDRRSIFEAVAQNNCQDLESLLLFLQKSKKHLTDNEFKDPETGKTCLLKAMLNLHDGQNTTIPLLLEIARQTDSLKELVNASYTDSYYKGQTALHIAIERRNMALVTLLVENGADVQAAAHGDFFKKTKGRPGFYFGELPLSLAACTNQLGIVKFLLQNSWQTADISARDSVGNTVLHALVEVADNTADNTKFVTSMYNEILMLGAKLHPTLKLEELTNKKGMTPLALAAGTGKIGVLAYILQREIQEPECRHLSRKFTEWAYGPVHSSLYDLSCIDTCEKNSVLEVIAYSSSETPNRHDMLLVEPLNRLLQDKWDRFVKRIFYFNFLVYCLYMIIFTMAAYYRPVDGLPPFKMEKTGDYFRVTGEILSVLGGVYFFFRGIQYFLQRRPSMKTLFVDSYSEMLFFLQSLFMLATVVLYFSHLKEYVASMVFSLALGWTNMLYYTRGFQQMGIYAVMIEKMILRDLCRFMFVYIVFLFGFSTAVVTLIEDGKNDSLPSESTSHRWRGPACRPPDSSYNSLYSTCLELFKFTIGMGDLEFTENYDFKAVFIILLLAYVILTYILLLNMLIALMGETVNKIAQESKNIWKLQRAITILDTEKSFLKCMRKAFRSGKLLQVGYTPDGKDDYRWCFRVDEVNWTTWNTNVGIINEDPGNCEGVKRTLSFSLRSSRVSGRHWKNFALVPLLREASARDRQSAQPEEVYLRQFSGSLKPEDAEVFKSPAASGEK
#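 Fluo-8 calcium influx in TRPV1-expressing cells, kinetic read (ex 480/em 520 nm). Compound added and read 3 min for agonist activity, followed by capsaicin at EC20 final and 2 min further read for enhancement.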
# An asterisk follows results filed as active; ? = inconclusive; · = not tested or not shown; & = joins results of further samples.
SMILES,Six1-Eya2 blk,TRPML1 agonist,TRPML1 inh,D2 PAM,CtBP-E1A blk,TRPV1 potentiator
COc1cc2cc(CN(CCc3ccccc3C)C(=S)NCCCN3CCOCC3)c(=O)[nH]c2cc1OC,-17,-0.6,10,-1,-12,-4
O=C(Nc1cccc(C(F)(F)F)c1)/C(=C/c1ccco1)NC(=O)c1cccs1,-2,0.0,2,-20,-1,17
CCCN1C(=O)c2cc(C(=O)O)ccc2C1O (stereo unspecified),-2,-0.2,13,-3,3,-3
CCN1C[C@@H]2[C@@H]3C(=O)N(Cc4ccccc4)C(=O)[C@@H]3[C@](CC)(C1=O)N2C(=O)c1ccc(Br)cc1,2,-0.5,-21,-8,11,·
CC(=Nc1ccc2c(c1)nc(CO)n2C)C1=C(O)CC(C)(C)CC1=O,-1,0.3,27,6,3,6
CC1(C)CC(=O)C=C(Nc2ccccc2NC(=O)c2cnccn2)C1,0,-0.6,2,-5,17,1
CC(=O)N1c2ccc(S(=O)(=O)NCCC(=O)NCCc3ccc(Cl)cc3)cc2CC1C (stereo unspecified),0,1.1,12,-10,2,-8
COc1ccccc1CN1CC(C(=O)NCCC2=CCCCC2)CCC1=O (stereo unspecified),-4,-0.6,-1,-16,-8,-10
Cc1cc2c(SCc3ccccc3Cl)nc(N)nc2nc1C,10,-0.6,3,-7,4,·
COc1ccc(S(=O)(=O)N2CCCCCC2)cc1NC(=O)Cc1ccccc1,5,0.7,2,-3,0,-4
COc1cccc(C(=O)c2c[nH]c(C(=O)NCc3cccnc3)c2)c1,-23,0.6,44,-13,-5,11
O=C(NC1CCCCC1)C(c1cccnc1)N(C(=O)c1csnn1)c1ccccc1F (stereo unspecified),-21,-1.5,6,-8,0,9
CC(C)C1Cc2[nH]c(=S)[nH]c(=O)c2C(c2ccc(Cl)cc2)O1 (stereo unspecified),6,0.9,-9,-5,4,·
Cc1ccc(Cl)cc1-n1c(SCC(=O)NCCC2=CCCCC2)nc2n[nH]c(C)c2c1=N,0,-0.6,21,-3,5,?
Cc1cccc(NC(=O)C(C)n2cc([N+](=O)[O-])cn2)n1 (stereo unspecified),5,0.0,-15,-1,8,3
CC(C)N(Cc1nc(-c2ccccc2)no1)C(=O)c1ccc(Cl)cc1,9,1.2,46,-7,13,27
CCn1c(CNC(C)=O)nnc1SCC(=O)c1ccc(Br)cc1,-1,-0.5,20,-13,-9,6
FC(F)(F)C1=NNC(c2ccc3ccccc3c2)=NN1,1,-0.5,25,-16,-16,·
CCOC(=O)c1sc(-c2cccc([N+](=O)[O-])c2)cc1N,-4,2.3,15,-1,·,-4
COC(=O)N/N=C(\C)c1ccc(-n2ccnc2)cc1,-2,-0.7,3,2,-3,-13
CCOC(=O)C(C)Oc1ccc2c(-c3cccc([N+](=O)[O-])c3)cc(=O)oc2c1 (stereo unspecified),-11,0.3,24,2,3,-6
O=C(COC(=O)c1ccc(O)cc1O)NC1CC1,20,-0.7,-7,-3,0,6
O=C1NC2(CCCCC2)C(=O)N1CC(=O)N1CCc2ccccc21,-13,-0.2,-8,-12,-12,·
Cc1ccc(CNC(=O)COC(=O)c2ccc(S(=O)(=O)N3CCCC3)cc2)cc1,4,3.3,33,-10,-2,-11
CCc1ccc(CN(Cc2cccnc2)C(=O)/C=C/c2ccc(OC)cc2)cc1,-3,1.8,70,-8,0,-20
COC(=O)[C@@]1(Cc2ccc(F)cc2)[C@H]2c3cc(C(=O)N4CCCC4)n(CCO)c3C[C@H]2CN1C(=O)c1ccccc1,0,0.7,-1,-2,0,-6
O=C(O)c1ccc2c(c1)C(=O)N(c1ccc(Nc3ccccc3)cc1)C2=O,6,1.1,1,-8,·,7
COc1ccc(C)cc1NC(=O)CNCc1cccs1,18,1.1,-20,-1,1,0
Cc1ccccc1CSCC(=O)N/N=C/c1cccs1,-2,0.1,5,-8,-3,3
OCCC1CN(Cc2ccc(Oc3ncccn3)cc2)CCN1CCc1ccccc1 (stereo unspecified),17,-0.6,9,-6,·,-23
CCOC(=O)C(C)Oc1cccc2c(=O)n(CC(=O)NCc3ccccc3)ccc12 (stereo unspecified),1,-0.3,-5,-2,0,18
CCOc1ccc(C(=O)N[C@H](C(=O)Nc2cccc(S(=O)(=O)N3CCOCC3)c2)C(C)C)cc1,2,0.5,-14,-20,2,25
CCN1C(=O)CSC1=Nc1ccccc1Cl,1,0.4,60,-7,3,11
Cc1noc(/C=C/N(C)C)c1S(=O)(=O)N1CCC(C(=O)Nc2ccc(Cl)cc2)CC1,?,0.5,-16,-10,·,-14
Cc1ccc(C2=NNC(c3cccc(F)c3)S2)cc1 (stereo unspecified),9,3.7,5,-3,·,-12
O=C(Cn1c(=O)c2cccn2c2ccccc21)Nc1ccc(F)cc1F,2,0.4,4,-1,5,19
Cc1ccccc1-c1cc(C(=O)NCc2ccco2)nn1CC1CC(c2cccc([N+](=O)[O-])c2)=NO1 (stereo unspecified),-17,-0.3,44,-62,-5,·
CC(C)C(NS(=O)(=O)c1cccs1)C(=O)NCc1ccc2c(c1)OCO2 (stereo unspecified),0,-1.0,-8,-1,3,25
Cc1cccc(NC(=O)c2ccc(S(=O)(=O)N3CCCC3)cc2)c1C,0,0.7,-2,-2,6,2
O=C(NCc1ccccc1Cl)C(=O)NCC(c1ccco1)N1CCOCC1 (stereo unspecified),3,0.6,0,1,1,-11
O=C(COc1ccc(Cl)cc1)NNC(=O)C(=O)NC1CCCCC1,3,0.6,14,9,-4,-3
COC(=O)c1cc(=O)n(CCc2ccc(OC)cc2)c(=Nc2ccc(F)c(Cl)c2)s1,0,1.6,16,-5,-5,-3
CC(C)C(c1nnnn1Cc1ccc(F)cc1)N1CCC(C(N)=O)CC1 (stereo unspecified),0,-0.1,-13,-4,0,-9
CCOc1ccccc1N1CC(C(=O)Nc2ccc(C(=O)O)cc2)CC1=O (stereo unspecified),7,-0.3,-22,7,2,?
COC(=O)c1cc(S(=O)(=O)NCC2CCN(Cc3ccc(Cl)cc3)CC2)cn1C,-1,0.0,-10,-28,-4,-16
CCOc1ccc(CCNS(=O)(=O)c2ccc(-c3ccc(=O)[nH]n3)o2)cc1OCC,-4,-0.5,6,0,-12,27
CCCC(=O)Oc1ccc(-c2nccc(C(OC)OC)n2)cc1,1,0.4,-7,-2,24,-29
CCCCCC1=CCC/C1=N\NC(=O)c1ccc2c(c1)OCO2,-3,0.9,-3,-9,3,-6
O=C(CCn1ccc2cc(S(=O)(=O)N3CCCC3)ccc21)NCc1cccc(F)c1,2,0.5&0.9,-11&-11,-11,-9,-24
O=C(COC(=O)/C=C/c1ccc(Cl)c(Cl)c1)NC1CC1,0,1.2,7,-14,6,·
CN(C)S(=O)(=O)c1ccc(NC(=O)c2ccc3ncsc3c2)cc1,-3,-0.6,14,-17,·,-21
O=C(Cc1cccs1)N1CCN(S(=O)(=O)c2cccc([N+](=O)[O-])c2)CC1,-1,-0.6,15,6,3,-2
CSCCCNC(=S)N1CCN(S(=O)(=O)c2cccc(C(F)(F)F)c2)CC1,-10,0.7,-15,3,-2,-12
COc1ccc(N(CC(=O)NC2CCCCC2C)S(=O)(=O)c2c(C)nn(C)c2C)cc1 (stereo unspecified),0,-0.2,-2,-3,5,-6
CC(C)Nc1ncnc2ccc(Br)cc12,-1,0.7,29,9,-2,5
CCCS(=O)(=O)NC(=O)C1(C)CCCN(C(=O)c2cccc3ccccc23)C1 (stereo unspecified),4,-0.3,·,-4,10,·
Cc1nc2ccc(C(=O)N3CCCC(CO)(Cc4ccc(F)cc4F)C3)cc2nc1C (stereo unspecified),0,-0.1,-6,-8,·,-10
COc1cc(C(=O)NNC(=O)c2n[nH]c3ccccc23)cc(OC)c1OC,1,2.0,15,0,0,-4
Cc1ccc(S(=O)(=O)NC(=NC(C)C(=O)O)c2ccccc2)cc1 (stereo unspecified),1,-0.7,22,3,5,-7
CC(C)CN(C(=O)CN(C)C(=O)Cc1ccc(Cl)cc1)c1c(N)n(CC(C)C)c(=O)[nH]c1=O,7,0.3,11,-9,12,-1

# In another format: results already given.
SMILES | Six1-Eya2 blk | TRPML1 agonist | TRPML1 inh | D2 PAM | CtBP-E1A blk | TRPV1 potentiator
O=C(CCn1ccc2cc(S(=O)(=O)N3CCCC3)ccc21)NCc1cccc(F)c1 | 2 | 0.5&0.9 | -11&-11 | -11 | -9 | -24
O=C(COC(=O)/C=C/c1ccc(Cl)c(Cl)c1)NC1CC1 | 0 | 1.2 | 7 | -14 | 6 | ·

# (list continues)
SMILES,Six1-Eya2 blk,TRPML1 agonist,TRPML1 inh,D2 PAM,CtBP-E1A blk,TRPV1 potentiator
Cc1ccc(S(=O)(=O)N2CC3(O)CN(C(=O)OC(C)C)N(C(=O)OC(C)C)CC3(OC(=O)NCC3CCCCC3)C2)cc1 (stereo unspecified),-1,1.1,-2,1,5,·
O=C(COC(=O)CC1CC2CCC1C2)Nc1ccc(F)cc1 (stereo unspecified),-1,0.5,-3,-8,·,-13
CNC(=O)NC(=O)C(c1ccccc1)N(C)CC1COc2ccccc2O1 (stereo unspecified),-3,-0.4,2,-5,-1,15
O=C(O)c1c2c(nc3ccccc13)/C(=C/c1ccc(OC(F)F)cc1)CCC2,-27,-0.2,10,-2,-12,7
Cc1nnc(SCC(=O)Nc2ccc(Br)cn2)[nH]c1=O,8,-0.6,-3,-22,27,?

# Ordered by number of heavy atoms (falling): part of the list above.
SMILES,Six1-Eya2 blk,TRPML1 agonist,TRPML1 inh,D2 PAM,CtBP-E1A blk,TRPV1 potentiator
Cc1ccc(S(=O)(=O)N2CC3(O)CN(C(=O)OC(C)C)N(C(=O)OC(C)C)CC3(OC(=O)NCC3CCCCC3)C2)cc1 (stereo unspecified),-1,1.1,-2,1,5,·
CC(C)CN(C(=O)CN(C)C(=O)Cc1ccc(Cl)cc1)c1c(N)n(CC(C)C)c(=O)[nH]c1=O,7,0.3,11,-9,12,-1
Cc1nc2ccc(C(=O)N3CCCC(CO)(Cc4ccc(F)cc4F)C3)cc2nc1C (stereo unspecified),0,-0.1,-6,-8,·,-10
O=C(O)c1c2c(nc3ccccc13)/C(=C/c1ccc(OC(F)F)cc1)CCC2,-27,-0.2,10,-2,-12,7
CSCCCNC(=S)N1CCN(S(=O)(=O)c2cccc(C(F)(F)F)c2)CC1,-10,0.7,-15,3,-2,-12
O=C(Cc1cccs1)N1CCN(S(=O)(=O)c2cccc([N+](=O)[O-])c2)CC1,-1,-0.6,15,6,3,-2
CN(C)S(=O)(=O)c1ccc(NC(=O)c2ccc3ncsc3c2)cc1,-3,-0.6,14,-17,·,-21
O=C(COC(=O)CC1CC2CCC1C2)Nc1ccc(F)cc1 (stereo unspecified),-1,0.5,-3,-8,·,-13
Cc1nnc(SCC(=O)Nc2ccc(Br)cn2)[nH]c1=O,8,-0.6,-3,-22,27,?
CC(C)Nc1ncnc2ccc(Br)cc12,-1,0.7,29,9,-2,5
